Screening data: PubChem BioAssay, several laboratories
Arbovirus anti: antivirals against arbovirus infection | inhibition, % at 10 µM | hit rate 0.37% among 200,000 | arbovirus infection cell-based antiviral screen;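 active = inhibition from about 30%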;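 also: bluetongue infection of BSR cells; cell survival read as ATP light after 72 h; 0% = infected wells without compound and 100% = uninfected wells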
RecA intein inh: inhibitors of M. tuberculosis RecA intein splicing. P9WHJ3. hit rate 0.75% among 290,000. cell-free RecA intein splicing, fluorescence. inhibition, %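 (about 9 µM by stock and volumes)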. AID 2221; in the data active = inhibition above about 30%; inconclusive = no clear call, values can overlap the other calls;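 also: 0% = vehicle wells and 100% = reference inhibitor control wells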
Target sequence (P9WHJ3 whole entry, looked up): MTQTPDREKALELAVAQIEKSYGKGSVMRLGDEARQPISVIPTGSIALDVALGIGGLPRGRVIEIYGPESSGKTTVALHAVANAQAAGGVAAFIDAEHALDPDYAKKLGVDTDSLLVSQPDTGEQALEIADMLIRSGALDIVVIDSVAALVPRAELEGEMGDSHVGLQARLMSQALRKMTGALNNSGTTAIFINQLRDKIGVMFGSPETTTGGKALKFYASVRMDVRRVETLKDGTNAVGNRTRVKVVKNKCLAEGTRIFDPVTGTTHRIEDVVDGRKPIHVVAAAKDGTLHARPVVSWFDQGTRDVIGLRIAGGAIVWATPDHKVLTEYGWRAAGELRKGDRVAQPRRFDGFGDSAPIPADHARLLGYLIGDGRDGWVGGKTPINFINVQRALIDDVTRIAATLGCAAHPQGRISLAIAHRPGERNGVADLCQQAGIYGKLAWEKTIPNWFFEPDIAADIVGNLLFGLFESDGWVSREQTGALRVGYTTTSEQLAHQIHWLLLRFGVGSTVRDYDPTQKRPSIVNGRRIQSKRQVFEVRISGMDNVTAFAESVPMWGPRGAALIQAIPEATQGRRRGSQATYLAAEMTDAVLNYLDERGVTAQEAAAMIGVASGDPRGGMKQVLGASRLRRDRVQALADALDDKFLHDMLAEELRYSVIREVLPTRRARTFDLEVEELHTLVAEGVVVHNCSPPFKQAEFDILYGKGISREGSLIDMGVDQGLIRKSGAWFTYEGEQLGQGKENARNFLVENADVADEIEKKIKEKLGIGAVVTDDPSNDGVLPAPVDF
Mtb H37Rv: M. tuberculosis H37Rv growth inhibitors, H37Rv strain (AID 1626); M. tuberculosis H37Rv growth inhibition; higher % means a stronger effect; inhibition, % at 10 µM; hits with a dose series show IC50 in µM; hit rate 0.95% among 220,000;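 active = confirmed in a dose series; inconclusive = inhibition above 80% but not taken into the dose series; inactive = below 80% or under 30% at every dose of the series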;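 also: bacteria incubated seven days before Alamar blue readout; 0% = bacteria only wells and 100% = bacteria with antibiotic wells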
Mtb betalactam: beta-lactam sensitization of Mtb H37Rv. M. tuberculosis H37Rv growth with meropenem, percent inhibition; hits of this screen are not shown here. inhibition, % at 25 µM. hit rate 0.27% among 330,000. AID 434955;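 active = about 74% or more and at least 40 points above the plate without the antibiotic, then above 30% in a dose series; inconclusive = first-round hits that could not be retested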;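 also: growth measured after seven days incubation then overnight dye step; 0% = bacteria only wells and 100% = bacteria with antibiotic; twin plates without the antibiotic show which effects depend on it; some results filed as inactive read as strong as hits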
YopH PTP inh: inhibitors of Yersinia enterocolitica YopH tyrosine phosphatase; fluorescence Ex485/Em525; inhibition, %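 (about 10 µM by stock and volumes)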; hit rate 0.16% among 140,000;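 active = inhibition of 50% or more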;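 also: controls were vehicle for no effect and minimum signal wells for full effect; inactives centre near -20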
Arbovirus anti repeat: further read-out of Arbovirus anti, marked with its call; inhibition, %; measured here: 10K subset replicate screen; many hits read low in the repeat;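 first of two repeat runs on a subset; 0% = infected and 100% = uninfected wells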
An asterisk follows results filed as active; ? = inconclusive; nt = not tested or not shown. Not all compounds are listed, so the mix of outcomes need not match the whole.

SMILES	Arbovirus anti	RecA intein inh	Mtb H37Rv	Mtb betalactam	YopH PTP inh	others
NC(=O)c1nc(-c2cccs2)nc2c1[nH]c(=O)n2-c1ccc(F)cc1	-13	-2.4	5%	5	nt
Cc1cc(NC(=O)CSc2c3c(nc4ccccc24)CCC3)no1	9	16	nt	-3	-37	Arbovirus anti repeat=-5
Cc1sc2ncnc(OCC(=O)Nc3ccc4c(c3)OCCO4)c2c1C	1	1.1	nt	-4	-12
NS(=O)(=O)c1ccc(CCNC(=O)COC(=O)C2CCCN2C(=O)c2cccs2)cc1 (centres undefined)	8	-2.5	-9%	2	-22
c1ccc(Nc2nnc(SCc3cccc4ccccc34)s2)cc1	6	4.4	-2%	0	-2
Cc1ncc([N+](=O)[O-])n1CC(=O)N/N=C/c1ccc(F)cc1	1	-2.4	0%	10	nt
CCOc1ccc(NC(=O)c2ccc(Br)o2)c([N+](=O)[O-])c1	2	0.8	-2%	22	-10
c1ccc2c(c1)OCC(c1nnc3sc(-c4ccc5c(c4)OCO5)nn13)O2 (centres undefined)	-3	0.3	-8%	5	-33
Cc1cc(C)c(NC(=O)CN2C(=O)NC(Cc3ccccc3)C2=O)c(C)c1 (centres undefined)	nt	0.8	-9%	-2	nt
Cc1cccc([C@@H]2[C@@H]3C(=O)N(Cc4ccccc4)C(=O)[C@@H]3[C@]3(CC(C)C)C(=O)N(c4cccc(Br)c4)C(=O)N23)c1	nt	-2.7	nt	-6	nt
Cc1cccn2c(=O)c3cc(C(=O)NCc4ccco4)c(=N)n(CCc4ccccc4)c3nc12	nt	nt	10µM*	64	nt
Cc1cccc(C)c1NC(=S)Nc1ccc(Cl)c(Cl)c1	-18	12	?	67	nt
COc1ccc(-c2nc(-c3cccc(C)c3)nc(N3CCN(C)CC3)c2C#N)cc1	-9	-0.5	7%	-3	-8
COc1ccccc1NC(=O)CSc1nc2c(sc3ccccc32)c(=O)n1CCN(C)C	-1	35*	-5%	-7	nt
COc1ccc2c(c1)sc(=N)n2C	6	-1.1	8.9µM*	98	nt
CN1CCN(CCCN(Cc2cccs2)C(=S)Nc2ccc(Cl)cc2)CC1	-13	nt	4%	-5	nt
COCCn1c(=NC(=O)c2ccc(S(=O)(=O)N3CCOCC3)cc2)sc2cc(S(N)(=O)=O)ccc21	nt	-2.5	nt	-9	nt
COc1ccccc1OCC(=O)NNC(=O)c1cnccn1	-4	0.8	nt	63	-29
Cc1onc(-c2ccccc2)c1C(=O)OCc1nnc(-c2ccccc2)o1	nt	-2.4	nt	3	nt
NC(=O)c1ccc(NC(=O)c2cncn2-c2ccccc2)cc1	nt	0.9	nt	-4	nt
CCCNC(=O)COC(=O)/C=C/c1ccco1	1	-10	-36%	-5	-12
C/C(=N\N1CCN(C)CC1)c1ccc(Cl)c(Cl)c1	-11	0.9	-9%	1	nt
Cc1nc(CNS(=O)(=O)c2ccc3c(c2)OCCO3)cs1	12	-2.1	8%	5	-20
COc1ccc(CCN(C)C2CCCN(S(=O)(=O)c3ccccc3)C2)cc1OC (centres undefined)	nt	-6.8	nt	0	nt
COc1ccc(Cl)cc1NC(=O)Cn1c(=O)n2nc(C)nc2c2ccccc21	-1	2.6	1%	34	nt	Arbovirus anti repeat=1
Cc1ccc(S(=O)(=O)Oc2ccc(N3C(=O)C4C5CCC(C5)C4C3=O)cc2)cc1 (centres undefined)	-3	1.4	4%	-2	nt
COc1ccc(C(=O)Nc2cc(C)c3c(=O)oc4ccccc4c3n2)cc1	-6	-1.7	8%	0	-57
COc1cc(C2CC(=O)N3CN(Cc4ccccc4)CSC3=C2C#N)ccc1OCc1ccccc1 (centres undefined)	9	9.6	-2%	2	-25
CCN1CCN(CCCNC(=O)c2ccc3c(Cl)c4c(nc3c2)CCCC4)CC1	nt	3.2	nt	0	nt
Cc1nn(CCC(=O)N2CCN(S(=O)(=O)c3ccc(Cl)cc3)CC2)c(C)c1C	nt	-2.8	nt	-2	nt
CNC(=O)CCCN1C(=O)c2ccccc2Sc2ncccc21	nt	0.4	nt	-10	nt
COc1ccc(C(=O)Nc2nc3ccc(S(C)(=O)=O)cc3s2)cc1OC	-5	-3.3	-2%	-2	nt
Cn1c(=O)oc2cc(S(=O)(=O)NCCN3CCN(c4ccccc4F)CC3)ccc21	3	9.4	-3%	-2	-37	Arbovirus anti repeat=3
O=C(CSc1ncnc2nc[nH]c12)Nc1nnc(SCc2ccc(Cl)c(Cl)c2)s1	-4	0.5	5%	3	nt
CCC(C)n1c(SCC(=O)Nc2ccccc2C(F)(F)F)nc2ccsc2c1=O (centres undefined)	9	9.4	5%	-19	1
CCOC(=O)c1c(NC(=O)CNC2CCCc3ccccc32)sc(C(N)=O)c1C (centres undefined)	-5	3.2	5%	5	nt
O=C(c1cccc(OC2CCN(Cc3ccc(F)cc3Cl)CC2)c1)N1CCCC1	nt	3.1	nt	13	nt
Cc1cc(NC(=O)Cn2cnc3c(nnn3-c3cccc(F)c3)c2=O)no1	-1	0.9	17%	1	nt
CC(C)NC(=O)NNC(=O)Cn1nnc(-c2cccc(Cl)c2Cl)n1	nt	2.4	-4%	-5	nt
COc1ccc(/C=C/C(=O)NC(=S)Nc2ccc(S(=O)(=O)Nc3nccnc3OC)cc2)cc1	0	0.5	-11%	3	-27
O=C(NC1(C(F)(F)F)NC(=O)N(CC2CCCCC2)C1=O)c1ccco1 (centres undefined)	3	-0.3	-5%	-6	-38
C=CCOc1cccc(/C=C\c2nc(O)c([N+](=O)[O-])c(=O)[nH]2)c1	nt	0.6	nt	7	nt
Cc1cccc(C(=O)NNC(=O)c2cc3cc4ccccc4nc3s2)c1	-15	0.4	3%	2	-26
CC(=O)Nc1cccc(Oc2cnc3ccccc3n2)c1	2	-4.0	-11%	9	-11
Cc1ccc(-c2nc3ccccc3nc2NN)cc1	nt	-3.2	-1%	-8	nt

3 entries out of the list, ordered by SMILES length, falling:
SMILES	Arbovirus anti	RecA intein inh	Mtb H37Rv	Mtb betalactam	YopH PTP inh	others
C=CCOc1cccc(/C=C\c2nc(O)c([N+](=O)[O-])c(=O)[nH]2)c1	nt	0.6	nt	7	nt
O=C(NC1(C(F)(F)F)NC(=O)N(CC2CCCCC2)C1=O)c1ccco1 (centres undefined)	3	-0.3	-5%	-6	-38
Cc1ccc(-c2nc3ccccc3nc2NN)cc1	nt	-3.2	-1%	-8	nt

Further entries follow:
SMILES	Arbovirus anti	RecA intein inh	Mtb H37Rv	Mtb betalactam	YopH PTP inh	others
Brc1ccccc1OCCCCCN1CCOCC1	-9	1.2	-2%	-2	nt
COC(=O)C(NNc1ccccc1C)(NC(=O)c1ccc(F)cc1)C(F)(F)F (centres undefined)	-6	-5.9	5%	-5	9
NC(=O)c1cc(N=Nc2c(N)[nH]n(-c3c(Cl)cc(Cl)cc3Cl)c2=O)ccc1Cl	4	1.6	-5%	2	nt
O=C(COC(=O)CCCN1C(=O)c2ccccc2C1=O)Nc1ncc(Cl)cc1Cl	5	-0.1	6%	-13	-17
COc1ccc(S(=O)(=O)N2CCN(Cc3cccc([N+](=O)[O-])c3)CC2)cc1	nt	0.3	nt	-9	nt
CN1C(=O)CC(N2CCN(c3ccccn3)CC2)C1=O (centres undefined)	1	-2.1	0%	-3	-37
CCOC(=O)c1c(NC(=O)COC(=O)CNC(=O)c2ccco2)sc(C(C)=O)c1C	-1	-4.8	2%	-6	-23
Cn1ccnc1SCC(=O)c1ccc(Br)cc1	2	4.8	-11%	1	-41
Fc1ccccc1/C=N/N1CCN(Cc2ccccc2Cl)CC1	nt	-0.2	nt	-1	nt
COc1ccc(C(C(=O)NCCC(C)C)N(CCO)C(=O)c2snc(C(N)=O)c2N)cc1OC (centres undefined)	nt	-4.1	nt	-4	nt
S=c1[nH]nc(-c2cc(-c3ccccn3)nc3ccccc23)o1	nt	-13	-2%	0	nt
COCCn1c(N)c(N(Cc2ccccc2)C(=O)c2ccc(C#N)cc2)c(=O)[nH]c1=O	3	1.3	-2%	-9	nt
O=C1/C(=C/c2cccnc2)SC(=S)N1CCc1ccccc1	nt	nt	-6%	52	nt
CCOCCCNC(=O)c1c(C)c(C(=O)OCC)n(C)c1C	0	-0.3	-3%	-3	-41
O=P(Cc1nnco1)(c1ccccc1)c1ccccc1	5	-1.9	-4%	3	-34
C/C=C\C=C/C(=O)Nc1cccc(C2=NOC3(C2)C[C@@H](C(N)=O)N(C(=O)[C@H]2CCC(=O)N2)C3)c1 (some centres undefined)	nt	-0.1	3%	-11	nt
Cc1ccccc1Oc1ncnc2oc(-c3ccccc3)cc12	2	nt	8%	-2	-8
COC(=O)C1=C(C)NC(=O)/C1=C\c1cc(C)n(-c2ccccc2)c1C	-17	-1.3	-5%	3	nt
CCc1ccc(NS(=O)(=O)c2ccc3[nH]cc(C(=O)NCC4CCCO4)c(=O)c3c2)cc1 (centres undefined)	-5	3.8	nt	11	-49
COc1cc(/C=C(/C#N)c2nc3ccccc3[nH]2)ccc1OCC(=O)Nc1ccccc1C(C)C	-46	-2.6	15%	79	-28
CCCCCCn1c(=O)c(C(=O)Nc2ncccc2C)c(O)c2ccccc21	nt	7.6	nt	100	nt
Cc1ccc(N2C(=O)CC(Nc3ccc(Cl)c(S(=O)(=O)N(C)C)c3)C2=O)c(C)c1 (centres undefined)	6	0.4	-10%	-10	nt
CC1CCN(CC2C(=O)O[C@@H]3C[C@@]4(C)CCC[C@H](C)C4=C[C@H]23)CC(C)(C)C1 (some centres undefined)	nt	1.2	nt	1	nt
CCC(C)NC(=O)CCc1nnc2ccc(N3CCC(C)CC3)nn12 (centres undefined)	nt	-0.3	nt	-6	nt
O=C(O)CC(NC(=O)C1c2ccccc2Oc2ccccc21)c1ccc(OC2CCCC2)cc1 (centres undefined)	18	5.9	3%	-5	nt
O=C(O)/C=C\C(=O)NC1CCCCC1	2	-0.5	-8%	-6	-31
COc1ccc(C2CC(=O)n3nc(C45CC6CC(CC(C6)C4)C5)nc3S2)cc1OC (centres undefined)	4	0.3	-5%	1	-14
CCC(=O)c1ccc(OCC(O)Cn2c(C)nc3ccccc32)cc1 (centres undefined)	8	nt	0%	20	5
O=C(Nc1ccc(C(=O)c2ccc(C(=O)O)c(C(=O)O)c2)cc1)c1ccccc1	nt	-3.9	nt	8	nt
Cc1nc2c3ccccc3nc(SCC(=O)c3ccc(Cl)cc3)n2n1	-7	0.3	10%	-2	-10

Molecules above with a COOH group, in the order listed:
SMILES	Arbovirus anti	RecA intein inh	Mtb H37Rv	Mtb betalactam	YopH PTP inh	others
O=C(O)CC(NC(=O)C1c2ccccc2Oc2ccccc21)c1ccc(OC2CCCC2)cc1 (centres undefined)	18	5.9	3%	-5	nt
O=C(O)/C=C\C(=O)NC1CCCCC1	2	-0.5	-8%	-6	-31
O=C(Nc1ccc(C(=O)c2ccc(C(=O)O)c(C(=O)O)c2)cc1)c1ccccc1	nt	-3.9	nt	8	nt

The results go on:
SMILES	Arbovirus anti	RecA intein inh	Mtb H37Rv	Mtb betalactam	YopH PTP inh	others
CCOC(=O)c1sc(NC(=O)CNCc2cccnc2)c(C(=O)OCC)c1C	-6	2.3	1%	35	nt
CN1C(=O)/C(=C\c2ccc(-c3ccccc3)o2)SC1=S	-7	0.8	-3%	3	nt
Cc1ccc(S(=O)(=O)N2CCCC(C(=O)NCCc3ccc4c(c3)OCO4)C2)cc1 (centres undefined)	-11	-2.9	0%	2	-42
O=C(Nc1cccc2ccccc12)c1ccc(Cn2cc(Cl)cn2)cc1	-3	3.0	60%	27	-35
COc1ccc(Cl)cc1S(=O)(=O)N1CCC(C(=O)NCc2ccccn2)CC1	nt	0.1	nt	-5	nt
CCc1cc2cc(C)ccc2nc1SCC(=O)NC1CCCC1	nt	8.2	nt	10	nt
O=C(NCc1ccco1)c1cc(-c2cccs2)nc2ccccc12	0	0.7	3%	2	-9
CCC(=O)Nc1cc(C(C)(C)C)ccc1C(C)=O	-8	-2.3	-1%	-7	-14
O=C(c1cccc(NC2=NC3CS(=O)(=O)CC3S2)c1)N1CCN(c2ccc(F)cc2)CC1 (centres undefined)	nt	-1.6	nt	-1	nt
O=S(=O)(NCC(c1cccnc1)N1CCOCC1)c1cccs1 (centres undefined)	14	-4.6	-7%	-7	-7
Cc1ccc(-c2nc(CS(=O)CC(=O)NCCN3CCCCC3C)c(C)o2)cc1 (centres undefined)	nt	-1.1	nt	0	nt
Cc1nc(=S)c2c([nH]1)-c1ccccc1CC21CCCCC1	nt	-1.0	6%	0	nt
O=C(O)CCn1c(-c2ccccc2)cc2c1CCCC2=O	-2	4.1	-5%	-2	-26	Arbovirus anti repeat=3
CC(C)COc1cccc(C(=O)NC2(C)CCS(=O)(=O)C2)c1 (centres undefined)	nt	1.3	nt	-20	nt
